Source: PubChem BioAssay
NPYLR7 ag: agonists of mosquito NPYLR7 receptor, primary screen, cell-based, Aedes aegypti, calcium fluorescence, mosquito biting behavior; activation, % at 10 µM; Aedes aegypti neuropeptide Y-like receptor 7 (NPYLR7); HEK293T NPYLR7/Galpha15, GCaMP6s calcium fluorescence; AID 1259423, 2018; 270,000 compounds, 0.15% hits; in the data active means activation above about 40%;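 further: 0% = vehicle and 100% = reference agonist at the receptor; some compounds past the cut are filed as inactive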
NPYLR7 ag max-min: further read-out of NPYLR7 ag, marked with its call; activation, %; measured here: Max-Min RFU normalised activation; some inactives read as strong as hits;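 span of the calcium signal over five minutes; 0% = vehicle and 100% = native peptide agonist; compound fluorescence can raise it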
* = called active by the depositor. An excerpt. The share of hits here may be higher or lower than overall.

SMILES | NPYLR7 ag | NPYLR7 ag max-min
O=C(O)C(=O)N1C2CCC3(CC2)OC(=O)N(Cc2ccccc2)CC13 (stereo not drawn) | 28.2 | 30.4
Cc1cc[n+](CC(=O)NS(=O)(=O)c2ccc(Cl)cc2)cc1 | 3.5 | 1.4
Cc1noc(C)c1CC(=O)N1CCCC(Nc2ccc(F)c(F)c2)C1 (stereo not drawn) | 20.8 | 8.6
COc1ccc(CCn2c(=O)c3ncccc3n(CC(=O)NC3CCCC3)c2=O)cc1OC | 1.6 | 2.5
CC(C)C(=O)Nc1ccc2c(c1)N(C(=O)c1ccccc1)CCC2 | -3.7 | 3.5
CC(C)COc1nc(-c2cccc(C(F)(F)F)c2)n(-c2ccc(NC(=O)c3cccc(F)c3)cc2)n1 | 9.6 | 14.6
NC(=O)C1CCN(C(c2ccccc2)c2ccc(Cl)cc2)CC1 (stereo not drawn) | -3.8 | -2.6
O=C(OC(CCl)CCl)c1ccc(N2C(=O)C3C4CCC(C4)C3C2=O)cc1 (stereo not drawn) | 4.4 | 4.7
Cc1[nH]nc2c1C(c1ccccc1)N(c1ccc(Br)cc1)C2=O (stereo not drawn) | 0.6 | 5.7
Cn1ncc(N=Cc2ccc([N+](=O)[O-])cc2)c1C(=O)N1CCOCC1 | -4.2 | -6.9
CC(Oc1ccc2c(c1)OCO2)c1n[nH]c(Cc2ccccc2)n1 (stereo not drawn) | 21.2 | 5.0
O=C1CN(C(=O)CN2CCCC2CC2CCCCC2)CCN1 (stereo not drawn) | 5.8 | 1.5
OC(COCc1ccco1)CN(Cc1ccccc1)Cc1cccs1 (stereo not drawn) | 23.0 | 29.4
CN(C)S(=O)(=O)N1CCc2onc(-c3ccc(-c4ccccc4)cc3)c2C1 | 16.0 | 9.9
COc1cccc(NC(=S)N2CCc3[nH]cnc3C2c2ccc(F)cc2)c1 (stereo not drawn) | 0.4 | 35.7
CC1(OC(=O)c2ccc(-c3cnco3)cc2)CCC1 | 1.4 | -0.9
CN(CCCc1cnn(C)c1)C(=O)c1ccc2ccccc2n1 | -4.2 | -8.0
CCS(=O)(=O)CCNC(=O)Nc1ccc2nc(OC)ccc2c1 | 2.6 | -0.6
O[C@@H]1CN(Cc2ccc(-c3ccn[nH]3)s2)CC[C@H]1c1ccc(F)cc1 | -1.5 | -3.2
C=CCC1(CC=C)CCCN1C(=O)C1(N)CC1 | -4.6 | -2.8
CC(C)(C)OC(=O)N1CCC(C(=O)NCCSC2Sc3ccccc3NC2=O)CC1 (stereo not drawn) | -7.0 | -9.8
O=C1COc2cc(S(=O)(=O)N3CCN(c4ncccn4)CC3)c(Cl)cc2N1 | 8.2 | 3.7
Cc1ccc(C(=O)N(Cc2nccn2Cc2ccccc2Cl)C2CCCCC2)cc1 | 31.0 | 32.2
Cn1c(=NN=Cc2ccc(C#N)cc2)sc2ccccc21 | 0.6 | -1.2
CCCn1cc(C(=O)Nc2cccc(C(C)C)c2)c(=O)c2ccc(C)nc21 | -9.7 | -10.5

3 compounds out of the list, ordered by SMILES length, largest number first.
SMILES | NPYLR7 ag | NPYLR7 ag max-min
O=C1COc2cc(S(=O)(=O)N3CCN(c4ncccn4)CC3)c(Cl)cc2N1 | 8.2 | 3.7
Cc1ccc(C(=O)N(Cc2nccn2Cc2ccccc2Cl)C2CCCCC2)cc1 | 31.0 | 32.2
CC1(OC(=O)c2ccc(-c3cnco3)cc2)CCC1 | 1.4 | -0.9

Additional structures:
SMILES | NPYLR7 ag | NPYLR7 ag max-min
O=c1cc(CN2CCc3[nH]nc(-c4ccc(Cl)cc4)c3C2)nc(C2CC2)[nH]1 | 13.4 | -2.4
CC(=O)NCCn1ncc2c(N3CCOCC3)ncnc21 | -1.5 | -1.5
CCOc1ccccc1C=C1NC(=S)NC1=O | 1.6 | -1.7
CCOc1cc(C(=O)Oc2coc(CSc3nc(C)cs3)cc2=O)cc(OCC)c1OCC | -3.2 | -7.5
CCOCC(=O)N(CC)c1ccc(S(=O)(=O)C(F)(F)F)cc1 | 9.2 | 1.3
N#Cc1ccc(N2CCCC(C(=O)Nc3ccccc3)C2)nc1 (stereo not drawn) | -1.6 | -2.3
CCc1nc(C)sc1CNC(=O)Cc1noc2ccccc12 | -1.2 | -4.8
CCOc1ccc(NS(=O)(=O)c2ccc(OC)c([N+](=O)[O-])c2)cc1OCC | -5.0 | 9.9
C=C(C)Cn1c(=O)c2c(nc3n2CCCN3c2ccc(CCCC)cc2)n(C)c1=O | 1.0 | -1.6
CC1CCc2c(sc3ncnc(NN4CCCCC4)c23)C1 (stereo not drawn) | 5.4 | 5.5
O=C(c1ccc(Cl)cc1)N1N=C(c2ccc(Br)cc2)CC1c1nc2ccccc2[nH]1 (stereo not drawn) | -9.0 | -16.3
COCCN(C)CC1CCCN1C(=O)Nc1ccc(F)cc1Cl (stereo not drawn) | 0.6 | -4.1
CC(C)N1C(=O)COCc2cc(-c3cccc(C(F)(F)F)c3)ccc21 | 5.3 | 1.0
O=C(c1ccccc1Cl)N1CCCC(OCc2ccc(OC(F)(F)F)cc2)C1 (stereo not drawn) | -2.5 | 0.1
CCCOc1cc(C)c(C)cc1S(=O)(=O)NCc1ccc2c(c1)OCO2 | 1.6 | 4.0
Cc1ccc(S(=O)(=O)C2=C([Si](C)(C)C)C3C=CC2C3)cc1 (stereo not drawn) | 8.7 | 1.5
COCCN(Cc1cccc(OC)c1)Cc1ccc(C(O)(c2cccs2)c2cccs2)o1 | -9.2 | 6.4
CC(C)NC(=O)c1csc(N2CCN(C)C2=O)n1 | -1.5 | -1.7
COc1ccc(CCN2CCC(CN(C)C(=O)c3cccc(C)c3)CC2)cc1 | 3.4 | 0.4
O=C(NCCN1CCOCC1)c1cc2c(s1)CS(=O)(=O)C2 | 5.2 | 4.6
Cc1ccc(-n2nc(-c3ccc(C)o3)cc2C(=O)N2CCN(c3ccccc3Cl)CC2)c(C)c1 | 0.3 | 13.5
COc1ccc(-c2cnc(OC(C)(C)C)nc2OC(C)(C)C)cc1 | 3.0 | 1.6
CC(C)(CO)CNC(=O)c1cc(COc2ccc3c(c2)CCCC3)on1 | 7.7 | 1.1
O=C(CN1C(=O)NC2(CCCC2)C1=O)OCc1nc2scc(-c3ccco3)c2c(=O)[nH]1 | 7.0 | 12.8
COc1ccc(-c2cc(C(F)(F)F)n3nc(C(N)=O)c(Cl)c3n2)cc1 | -6.5 | -11.3

Molecules from the list above that have bromine (2):
SMILES | NPYLR7 ag | NPYLR7 ag max-min
Cc1[nH]nc2c1C(c1ccccc1)N(c1ccc(Br)cc1)C2=O (stereo not drawn) | 0.6 | 5.7
O=C(c1ccc(Cl)cc1)N1N=C(c2ccc(Br)cc2)CC1c1nc2ccccc2[nH]1 (stereo not drawn) | -9.0 | -16.3

By substructure: the compounds so far containing a cyano group.
SMILES | NPYLR7 ag | NPYLR7 ag max-min
Cn1c(=NN=Cc2ccc(C#N)cc2)sc2ccccc21 | 0.6 | -1.2
N#Cc1ccc(N2CCCC(C(=O)Nc3ccccc3)C2)nc1 (stereo not drawn) | -1.6 | -2.3

(more compounds)
SMILES | NPYLR7 ag | NPYLR7 ag max-min
CCc1nc2n(n1)C(=O)C(C(c1ccc(C(F)(F)F)cc1)N1CCN(C)CC1)S2 (stereo not drawn) | -6.1 | -9.3
O=C1NC(=O)C(Nc2ccc(I)cc2)S1 (stereo not drawn) | 3.2 | 2.5
CC(C)c1nc(NC(=O)c2ccc(Cl)c(Cl)c2)n[nH]1 | 0.1 | -1.4
Cc1cc(C2CCCN2Cc2cnc3c(-c4ccccc4)cnn3c2)no1 (stereo not drawn) | -1.0 | -5.0
CCCCOC(=O)N1CCC2(CC1)[C@@H](C(=O)OCC)[C@@H](O)C(=O)N2C | 0.3 | 12.2
Cc1ccc(-c2cc(C(=O)N3CCN(Cc4ccc5c(c4)OCO5)CC3)n(-c3ccc(Cl)cc3)n2)cc1C | -1.3 | 4.1
CCOc1ccccc1N1CCN(C(=O)c2cc(-c3ccc(OC)cc3)nc3cc(C(C)(C)C)nn23)CC1 | 7.4 | 5.4
COC(=O)c1ccc(OC)c(Cn2cnc3c(-c4cccc(Cl)c4)csc3c2=O)c1 | 6.4 | 6.1
CC(=O)c1cccc(NC(=O)NC2CCCN(C3CCCCCC3)C2)c1 (stereo not drawn) | -1.2 | -3.3
COc1cc(/C=C2/SC(=S)N(CC(=O)O)C2=O)ccc1OC(=O)c1ccc(C)cc1 | -2.3 | 7.8
O=C(CCC(=O)N1CCc2ccccc2C1)NCCc1ccccc1F | 2.2 | -4.0
CCOC(=O)CC(=O)N1CCN(c2nc3nccc(-c4cccs4)n3n2)CC1 | 4.2 | -0.1
CC(C#N)c1cccc(C(=O)N2CCOC(COCc3ccc(F)cc3Cl)C2)c1 (stereo not drawn) | 9.4 | 0.1
CC(=O)N1CSCC1C(=O)Nc1nc2c(C)cccc2s1 (stereo not drawn) | 4.6 | 0.0
Cc1cc(C)c(S(=O)(=O)NCCO)c(C)c1N(C)S(=O)(=O)c1ccccc1 | 2.7 | 7.6
COC(=O)c1ccc(NC(=O)c2c(-c3c(Cl)cccc3Cl)noc2C)cc1 | -0.5 | -0.2
CC(C)NC(=O)C1=CN2CCN(Cc3ccccc3)C(=O)N=C2O1 | 0.8 | -0.6
Cc1ccncc1-c1ccc(-c2ccn[nH]2)cc1 | -1.0 | -0.8
CCC(CC)=NNc1ccc([N+](=O)[O-])cc1[N+](=O)[O-] | -6.4 | -10.2
C=c1cc(C)n(CC(=O)Nc2c(C)cc(C)cc2C)c(=O)c1=C1N=C(c2ccc(F)cc2)NO1 | 1.1 | -4.2
CCCCOc1ccc(-c2c(C#N)c(N)nc(SCC(=O)OC)c2C#N)cc1 | 0.5 | 2.8
COC(=O)c1cc(NC(=O)c2sccc2C(C)C)cc(S(C)(=O)=O)c1 | 1.0 | 2.1
CC(C)C1CN(c2cnccn2)CCC(=O)N1CC1CC1 (stereo not drawn) | 3.9 | -3.4
COc1cc(C=CC(=O)c2ccc(S(=O)(=O)N3CCCC3)cc2)cc(OC)c1O | 3.7 | -2.6
CC1NC(=S)N(c2cc3c(cc2Br)OCCO3)C1=O (stereo not drawn) | 10.2 | 2.4

New compounds follow.
SMILES | NPYLR7 ag | NPYLR7 ag max-min
COc1cc(C=NN=C2CC(c3ccccc3)N=N2)cc(I)c1O (stereo not drawn) | 5.2 | 6.0
COc1cccc(/C=C2N=C(/C=C/c3ccc(C)cc3)OC\2=O)c1 | -1.4 | -5.9
O=C(c1ccccc1-n1cccn1)N1CCN(Cc2ccccc2)CC1 | -5.4 | -8.7
Cc1cccc(-c2ccnc3nc(N4CCN(C(=O)C(C)C)CC4)nn23)c1 | 3.3 | -1.3
O=C(CN1CCCCC1C(=O)N1CCCC1)NCCCc1ccccc1 (stereo not drawn) | 0.7 | -1.3
CC1C(=O)N(C)CCN1C(=O)c1ccccc1-c1ccccc1 (stereo not drawn) | -0.7 | -1.2
COc1ccc(S(=O)(=O)N2CCN(C(=O)CCN3CCc4sccc4C3c3ccccc3C)CC2C)cc1 (stereo not drawn) | 9.9 | -1.3
COc1ccc(OC)c(C2CCCN2C(=O)c2ccc(-n3cc[nH]c3=S)cc2)c1 (stereo not drawn) | -3.7 | -3.0
COc1ccc(N2C(=O)CSC2c2ccc(NS(=O)(=O)c3c(C)cc(C)cc3C)cc2)cc1 (stereo not drawn) | -3.5 | 0.3
c1cnc(N2CCCN(c3nncc(-c4ccc5ccccc5c4)n3)CC2)nc1 | 3.3 | -2.3
Cc1cc(NCc2ccc3[nH]c(C)c(C)c3c2)nc(N)n1 | 13.4 | 8.3
CN1CC(C(=O)N2CC=C(c3c[nH]c4ccccc34)CC2)CC1=O (stereo not drawn) | 11.9 | 7.9
O=C(NCCC(=O)N1CCOC(COc2ccc3c(c2)CCCC3)C1)OCc1ccccc1 (stereo not drawn) | -4.2 | -7.7
Cn1ccsc1=NC(=O)c1cn[nH]c1-c1ccccc1 | 7.8 | 3.2
CCn1cnnc1CCNC(=O)C1CC2(CCNCC2)CN1 (stereo not drawn) | 21.8 | 5.4
Cc1cc(C)c(S(=O)(=O)NCCn2nc(-c3ccc(F)cc3)ccc2=O)c(C)c1 | -2.3 | -3.2
O=C(COc1ccccc1)N=Nc1c(O)[nH]c2ccc(Br)cc12 | 10.1 | 11.8

Some of the entries so far, with two lines to a compound:
Screens in order: NPYLR7 ag | NPYLR7 ag max-min
- COc1ccc(S(=O)(=O)N2CCN(C(=O)CCN3CCc4sccc4C3c3ccccc3C)CC2C)cc1 (stereo not drawn)
  9.9 | -1.3
- CC1C(=O)N(C)CCN1C(=O)c1ccccc1-c1ccccc1 (stereo not drawn)
  -0.7 | -1.2
- COc1ccc(OC)c(C2CCCN2C(=O)c2ccc(-n3cc[nH]c3=S)cc2)c1 (stereo not drawn)
  -3.7 | -3.0
- Cc1cc(C)c(S(=O)(=O)NCCn2nc(-c3ccc(F)cc3)ccc2=O)c(C)c1
  -2.3 | -3.2
- O=C(CN1CCCCC1C(=O)N1CCCC1)NCCCc1ccccc1 (stereo not drawn)
  0.7 | -1.3
- Cc1cc(NCc2ccc3[nH]c(C)c(C)c3c2)nc(N)n1
  13.4 | 8.3
